Screens deposited in PubChem BioAssay by Broad Institute.
NOMO-1 viab – STK33 inhibitor candidate reducing NOMO-1 cell viability | 7.5% of 37,000 active | NOMO-1 AML viability, CellTiter-Glo luminescence, 72 h | inhibition, % (no concentration beside the values);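 active = most replicates above 80%; inconclusive = exactly half above 80%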;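 also: wells of about 30 µL received 25 nL stock; 0% = median of vehicle wells and 100% = reference inhibitor level; the first replicate is given; inactives centre near 10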
Active calls of the source: *; ? = inconclusive. An excerpt, so the mix of outcomes need not match the whole.

canonical_smiles | NOMO-1 viab
Nc1ncnc2c1[nH]c(=S)n2CCOc1cccc2ccccc12 | ?
C[C@@H]1CN([C@H](C)CO)C(=O)c2cccc(NC(=O)Nc3ccc(F)cc3)c2O[C@@H]1CN(C)S(=O)(=O)c1ccc(Cl)cc1 | ?
O=C(CSc1nc2ccccc2c(=O)[nH]1)Nc1cccc([N+](=O)[O-])c1 | 22
C[C@@H]1CN([C@H](C)CO)C(=O)c2cccc(N(C)C)c2O[C@H]1CN(C)C(=O)Nc1ccccc1 | 19
C[C@H](CO)N1C[C@H](C)[C@H](CN(C)Cc2ccc(C(=O)Nc3ccccc3N)cc2)Oc2c(NS(=O)(=O)c3ccc(Cl)cc3)cccc2C1=O | 121*
C[C@H]1CN([C@@H](C)CO)C(=O)c2cc(NC(=O)CCN3CCOCC3)ccc2O[C@@H]1CN(C)Cc1ccc(C(=O)Nc2ccccc2N)cc1 | ?
COc1ccccc1NC(=O)CSC1CC(=O)N(c2ccc(C)cc2)C1=O (stereo unspecified) | 11
CNC[C@H]1Oc2ccc(NC(=O)Cc3ccccc3)cc2CC(=O)N([C@@H](C)CO)C[C@H]1C | 12
C[C@H]1CN([C@@H](C)CO)C(=O)c2cccc(NC(=O)c3ccncc3)c2O[C@@H]1CN(C)C(=O)Nc1cccc2ccccc12 | 9
Nc1cc(=O)[nH]c(SCC(=O)NCc2ccco2)n1 | -14
COc1ccc(CN(C)C[C@@H]2Oc3ccc(NC(=O)Cc4ccccc4)cc3CC(=O)N([C@H](C)CO)C[C@@H]2C)cc1 | -4
Cc1ccc(C(=O)CCNc2ccc3c(c2)oc2ccccc23)o1 | -2
C[C@H]1CN([C@@H](C)CO)C(=O)Cc2cc(NS(=O)(=O)c3ccccc3)ccc2O[C@H]1CN(C)S(=O)(=O)c1ccc(Cl)cc1 | 11
Cc1cccc(C)c1OCc1nnc2c3cnn(-c4ccccc4)c3ncn12 | 35
CCCCC(=O)/C=C/n1c(=S)oc2ccccc21 | 133*
Cc1ccc(-n2c(C)nc3sc4c(c3c2=O)CCC4)cc1 | 26
C[C@@H]1CN([C@H](C)CO)C(=O)c2cc(NC(=O)Cc3ccccc3)ccc2O[C@@H]1CN(C)Cc1ccncc1 | -12
C[C@@H]1CCCCO[C@H](CN(C)Cc2ccccc2)[C@@H](C)CN([C@H](C)CO)C(=O)c2cc(NC(=O)CCCN(C)C)ccc2O1 | 12
Cc1noc(C)c1S(=O)(=O)Nc1ccc2c(c1)CC(=O)N([C@@H](C)CO)C[C@H](C)[C@@H](CN(C)Cc1ccc(C(F)(F)F)cc1)O2 | 65
Cc1ccc(S(=O)(=O)N(C)C[C@H]2Oc3ccc(NC(=O)C4CC4)cc3C(=O)N([C@@H](C)CO)C[C@@H]2C)cc1 | 15
C[C@H](CO)N1C[C@H](C)[C@H](CN(C)Cc2ccc3c(c2)OCO3)Oc2ccc(NS(=O)(=O)c3ccccc3)cc2CC1=O | 1
Cc1cccc(-c2nnc(SCC(=O)Nc3ccccc3F)o2)c1 | 43
COc1ccc(NC(=O)N(C)C[C@@H]2Oc3c(NC(=O)C4CCCCC4)cccc3C(=O)N([C@@H](C)CO)C[C@H]2C)cc1 | 5
Cc1cccc(NC(=O)CSc2nc(-c3ccccc3)c(-c3ccccc3)[nH]2)c1C | 29

As entered above:
`Cc1cccc(C)c1OCc1nnc2c3cnn(-c4ccccc4)c3ncn12` | NOMO-1 viab = 35
`C[C@@H]1CCCCO[C@H](CN(C)Cc2ccccc2)[C@@H](C)CN([C@H](C)CO)C(=O)c2cc(NC(=O)CCCN(C)C)ccc2O1` | NOMO-1 viab = 12
`Cc1cccc(NC(=O)CSc2nc(-c3ccccc3)c(-c3ccccc3)[nH]2)c1C` | NOMO-1 viab = 29

Remaining list, next part.
canonical_smiles | NOMO-1 viab
CNC[C@@H]1Oc2ccc(NC(=O)C3CC3)cc2CC(=O)N([C@H](C)CO)C[C@H]1C | 10
C[C@@H]1CN([C@@H](C)CO)C(=O)Cc2cc(NC(=O)Nc3ccc(F)cc3)ccc2O[C@@H]1CN(C)Cc1ccccc1 | 51
C[C@@H]1CN([C@H](C)CO)C(=O)c2cc(NC(=O)Nc3ccc(F)cc3)ccc2O[C@H]1CN(C)Cc1ccncc1 | -5
C[C@@H]1CN([C@@H](C)CO)C(=O)c2cc(NC(=O)NC3CCCCC3)ccc2O[C@H]1CN(C)Cc1ccc(C(=O)O)cc1 | 18
C/C=C1\C(O[C@@H]2O[C@H](CO)[C@@H](O)[C@H](O)[C@H]2O)OC=C(C(=O)OC)C1CC(=O)OCC(O)c1ccc(O)c(O)c1 (stereo partly specified) | 16
C[C@@H]1CN([C@@H](C)CO)C(=O)c2cc(NS(=O)(=O)c3ccc(F)cc3)ccc2O[C@H]1CN(C)Cc1ccc2c(c1)OCO2 | 7
C[C@H](CO)N1C[C@H](C)[C@H](CN(C)C(=O)Nc2ccc(C(F)(F)F)cc2)Oc2ccc(NS(C)(=O)=O)cc2CC1=O | -2
O=[N+]([O-])c1ccc(OCc2nc(-c3ccccn3)no2)cc1 | 0
COC(=O)c1c(NC(=O)c2cc(-c3ccccn3)nc3ccc(Br)cc23)sc(C(=O)N(C)C)c1C | 86*
C[N+](C)(Cc1ccccc1)Cc1ccccc1 | 16
O=C(NC1CCCC1)c1c(NC(=O)c2cc(-c3cccnc3)nc3ccccc23)sc2c1CCCC2 | 8
Cc1noc(C)c1NC(=O)Nc1ccc2c(c1)CC(=O)N([C@@H](C)CO)C[C@H](C)[C@H](CN(C)C(=O)NC1CCCCC1)O2 | -9
C[C@H]1CN([C@@H](C)CO)C(=O)Cc2cc(NC(=O)Cc3ccccc3)ccc2O[C@@H]1CN(C)Cc1ccncc1 | -13
Cc1noc(C)c1NC(=O)Nc1cccc2c1O[C@H](CN(C)C(=O)NC1CCCCC1)[C@H](C)CN([C@H](C)CO)C2=O | 20
Cc1ccc(S(=O)(=O)Nc2ccc3c(c2)C(=O)N([C@H](C)CO)C[C@H](C)[C@H](CN(C)S(=O)(=O)c2ccc(Cl)cc2)OCCCC[C@@H](C)O3)cc1 | 111*
Cc1ccc(C(C)C)c(OCCSc2ncnc3nc[nH]c23)c1 | 62
C[C@H]1CN([C@@H](C)CO)C(=O)c2cc(NC(=O)Cn3cnnn3)ccc2O[C@H]1CN(C)Cc1ccccc1 | 12
Cc1ccc(S(=O)(=O)Nc2ccc3c(c2)C(=O)N([C@@H](C)CO)C[C@@H](C)[C@@H](CN(C)S(=O)(=O)c2cn(C)cn2)O3)cc1 | 9
CNCCC(Oc1ccccc1OC)c1ccccc1 (stereo unspecified) | 12
C[C@H](CO)N1C[C@H](C)[C@@H](CN(C)Cc2ccc(C(F)(F)F)cc2)Oc2ccc(NC(=O)Nc3ccc4c(c3)OCO4)cc2C1=O | 25
CC(C)c1cc(C(C)C)c(N)c(C(C)C)c1 | 0
C[C@@H]1CN([C@@H](C)CO)C(=O)c2cc(NC(=O)Nc3ccccc3)ccc2O[C@H]1CN(C)C(=O)Nc1ccc2c(c1)OCO2 | 9
CC(C)NC(=O)N(C)C[C@H]1OCCCC[C@@H](C)Oc2ccc(NS(=O)(=O)c3ccc(F)cc3)cc2C(=O)N([C@H](C)CO)C[C@@H]1C | -2
O=C(CN1CCCCC1)Nc1sc2c(c1C(=O)Nc1ccccc1)CCCC2 | 13
C[C@H]1CN([C@@H](C)CO)C(=O)c2cc(NS(=O)(=O)c3cccs3)ccc2O[C@@H]1CN(C)Cc1ccc(C(=O)Nc2ccccc2N)cc1 | -20
C[C@@H]1CN([C@H](C)CO)C(=O)c2cc(NC(=O)Nc3ccc(F)cc3)ccc2O[C@@H]1CN(C)Cc1ccc(C(F)(F)F)cc1 | ?
Cc1oc(-c2cc(Cl)cc(Cl)c2)cc1C(=O)NCc1ccco1 | 21
C[C@@H]1CN([C@@H](C)CO)C(=O)c2cccc(N(C)C)c2O[C@H]1CN(C)S(=O)(=O)c1cccs1 | 23
COc1ccc(S(=O)(=O)Nc2cccc3c2O[C@H](CN(C)S(=O)(=O)c2c(C)noc2C)[C@H](C)CN([C@@H](C)CO)C3=O)cc1 | 31
Cc1noc(C)c1NC(=O)Nc1cccc2c1O[C@@H](CN(C)C(=O)Nc1ccc(F)cc1)[C@@H](C)CN([C@H](C)CO)C2=O | 33
C[C@H](CO)N1C[C@H](C)[C@H](CN(C)S(=O)(=O)c2cn(C)cn2)Oc2c(NS(=O)(=O)c3ccc(F)cc3)cccc2C1=O | -5
CC(Sc1ncnc2sc(-c3ccccc3)cc12)C(=O)Nc1cc(Cl)ccc1Cl (stereo unspecified) | -1
COc1cc(S(=O)(=O)Nc2cccnc2)ccc1F | 34
COc1ccc(CN(C)C[C@H]2Oc3ccc(NS(=O)(=O)c4cccs4)cc3C(=O)N([C@@H](C)CO)C[C@H]2C)cc1 | 24
C[C@H](CO)N1C[C@H](C)[C@H](CN(C)Cc2ccc3c(c2)OCO3)Oc2ccc(NS(=O)(=O)c3cccs3)cc2CC1=O | 5
COc1ccc(NC(=O)N(C)C[C@@H]2Oc3ccc(NC(=O)CCN4CCOCC4)cc3C(=O)N([C@@H](C)CO)C[C@@H]2C)cc1 | 11

A section of the results above, as a working copy:
canonical_smiles | NOMO-1 viab
Nc1ncnc2c1[nH]c(=S)n2CCOc1cccc2ccccc12 | ?
C[C@@H]1CN([C@H](C)CO)C(=O)c2cccc(NC(=O)Nc3ccc(F)cc3)c2O[C@@H]1CN(C)S(=O)(=O)c1ccc(Cl)cc1 | ?
O=C(CSc1nc2ccccc2c(=O)[nH]1)Nc1cccc([N+](=O)[O-])c1 | 22

Of the compounds above, three have a furan ring, fused or not:
canonical_smiles | NOMO-1 viab
Nc1cc(=O)[nH]c(SCC(=O)NCc2ccco2)n1 | -14
Cc1ccc(C(=O)CCNc2ccc3c(c2)oc2ccccc23)o1 | -2
Cc1oc(-c2cc(Cl)cc(Cl)c2)cc1C(=O)NCc1ccco1 | 21

Later entries:
canonical_smiles | NOMO-1 viab
C[C@@H]1CN([C@H](C)CO)C(=O)c2cc(NC(=O)Nc3ccc4c(c3)OCO4)ccc2O[C@H]1CN(C)Cc1ccccc1 | -1
C[C@H]1CN([C@@H](C)CO)C(=O)Cc2cc(NS(=O)(=O)c3cccs3)ccc2O[C@@H]1CN(C)Cc1ccc2c(c1)OCO2 | 21
Cc1ccc(NC(=O)COc2ccc(Br)cc2)cc1NC(=O)c1ccccc1 | 30
Cc1noc(C)c1S(=O)(=O)N(C)C[C@@H]1OCCCC[C@@H](C)Oc2ccc(NC(=O)C3CCCCC3)cc2C(=O)N([C@H](C)CO)C[C@@H]1C | 21
C[C@@H]1CN([C@@H](C)CO)C(=O)c2cc(NC(=O)Nc3ccc(F)cc3)ccc2O[C@@H]1CN(C)CC1CCCCC1 | 27
O=c1c(-c2ccc(O[C@@H]3O[C@H](CO)[C@@H](O)[C@H](O)[C@H]3O)cc2)coc2c([C@@H]3O[C@H](CO)[C@@H](O)[C@H](O)[C@H]3O)c(O)cc(O)c12 | 27
COc1ccc(S(=O)(=O)N(C)C[C@@H]2Oc3c(NC(=O)Nc4c(C)noc4C)cccc3C(=O)N([C@@H](C)CO)C[C@H]2C)cc1 | 3
Cc1ccc(S(=O)(=O)N(C)C[C@H]2Oc3ccc(NS(=O)(=O)c4cccs4)cc3CC(=O)N([C@H](C)CO)C[C@H]2C)cc1 | 41
COC(=O)c1c(C)ncc2c1COC(C)OC2 (stereo unspecified) | -12
O=C(Nc1ccc(S(=O)(=O)NCC2CCCO2)cc1)c1cc(-c2ccccc2)nc2ccccc12 (stereo unspecified) | 26
COc1cccc(/C=C/c2cc(C(F)(F)F)[nH]c(=O)n2)c1OCC(=O)O | -11
COc1ccc(S(=O)(=O)Nc2ccc3c(c2)CC(=O)N([C@H](C)CO)C[C@H](C)[C@H](CN(C)C(=O)Nc2ccc(C(F)(F)F)cc2)O3)cc1 | 18
O=C(c1ccccc1)C(c1ccccc1)n1nnc2ccccc21 (stereo unspecified) | -13
C[C@@H]1CN([C@@H](C)CO)C(=O)c2cc(NC(=O)Nc3cccc4ccccc34)ccc2O[C@@H]1CN(C)C(=O)Nc1ccccc1 | 22
COc1ccc(C(=O)NCCSc2ccccn2)cc1 | 25
COc1ccc(-c2nn(-c3ccccc3)cc2C(=O)NCC(=O)c2ccccc2)cc1OC | 5
C[C@@H]1CN([C@H](C)CO)C(=O)c2cc(NC(=O)CCN3CCOCC3)ccc2O[C@@H]1CN(C)C(=O)NC1CCCCC1 | -8
CCOC(=O)NC(=O)CSc1ccccn1 | 11
C[C@@H]1CN([C@H](C)CO)C(=O)c2cccc(NS(=O)(=O)c3ccc(F)cc3)c2O[C@H]1CN(C)C(=O)Nc1ccc(F)cc1 | 13
Cc1ccc(S(=O)(=O)Nc2ccc3c(c2)C(=O)N([C@H](C)CO)C[C@@H](C)[C@@H](CN(C)Cc2ccc4c(c2)OCO4)O3)cc1 | 19
CC(C)NC(=O)Nc1ccc2c(c1)C(=O)N([C@H](C)CO)C[C@H](C)[C@@H](CN(C)C(=O)Nc1ccccc1)O2 | 4
Cn1c(SCC(=O)Nc2ccc(Oc3ccccc3)cc2)nnc1-c1cccs1 | 9
O=c1[nH]cc(NCc2ccccc2)c(=O)[nH]1 | 2
CCOC(=O)c1c(NC(=O)C2CC(c3ccccc3Cl)=NO2)sc(C)c1C (stereo unspecified) | 3
O=c1c2ccccc2nc(SCc2ccc3c(c2)OCO3)n1-c1ccccc1 | 11
Cc1noc(C)c1S(=O)(=O)Nc1ccc2c(c1)C(=O)N([C@@H](C)CO)C[C@@H](C)[C@H](CN(C)S(=O)(=O)c1ccccc1)O2 | 14
Cc1ccc(C)c(OCC(=O)Nc2ccccc2C#N)c1 | 15
NS(=O)(=O)c1ccc(NC(=O)CSc2ncnc3sc4c(c23)CCCCC4)cc1 | 5

Filtered by structure, those above containing a nitro group on carbon
canonical_smiles | NOMO-1 viab
O=C(CSc1nc2ccccc2c(=O)[nH]1)Nc1cccc([N+](=O)[O-])c1 | 22
O=[N+]([O-])c1ccc(OCc2nc(-c3ccccn3)no2)cc1 | 0
